Bioassay records: PubChem, Broad Institute
Vaccinia inh – blocks a specific stage of Vaccinia orthopoxvirus infection; Vaccinia-infected cells, mCherry/Venus stage reporter fluorescence; stronger effect = lower value; some inactives read as strong as hits; activity change (mCherry), % (test concentration not listed); hit rate 0.01% among 89,000; AID 1053133;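 active = mCherry past -33% and 40 or more points under the early reporter, replicates agreeing; inconclusive = past -33% without that gap or agreement; tested in A549 cells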;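 note: scaled between vehicle wells and reference inhibitor wells; 23 nL library stock went into each well; one replicate is shown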
Vaccinia inh Venus – further read-out of Vaccinia inh, marked with its call; activity change (Venus), %; measured here: Venus reporter, other viral stage;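 negative = less Venus signal; first of two replicates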
Active calls of the source: *; ? = inconclusive; · = no result given; & = joins results of further samples.

SMILES	Vaccinia inh	Vaccinia inh Venus
O=C(Nc1ccc(Cl)cc1)N1[C@@H]2CNC[C@H]1C2c1ccc(/C=C/c2ccccc2)cc1 (some centres undefined)	-2&-4	11&13
C/C=C/c1ccc2c(c1)O[C@H](CN(C)C(=O)Nc1ccc(C(F)(F)F)cc1)[C@H](C)CN([C@H](C)CO)S2(=O)=O	?	·
C[C@H](NC(=O)C[C@H]1CC[C@@H]2[C@H](COc3ccc(NC(=O)C4CCOCC4)cc3C(=O)N2C)O1)c1ccccc1	18	16
CCCNC[C@H]1[C@@H](c2ccc(C3=CCCCC3)cc2)[C@@H](CO)N1C(=O)C1CCC1	7	17
COCC(=O)Nc1ccc2c(c1)C(=O)N(C)[C@H]1CC[C@H](CC(=O)NC3Cc4ccccc4C3)O[C@H]1CO2	9	9
CN(C)C(=O)C[C@@H]1CC[C@H]2[C@@H](COC[C@@H](O)CN2Cc2nccs2)O1	8	10
N#Cc1cccc(-c2ccc(C3[C@@H]4CN(C(=O)Cc5ccncc5)C[C@H]3N4)cc2)c1 (some centres undefined)	?	-16
O=C(C[C@@H]1CC[C@@H](NC(=O)c2cccc(F)c2)[C@@H](CO)O1)Nc1nccs1	6	7
COc1cccc(-c2ccc3c(c2)O[C@@H](CN(C)C(C)=O)[C@H](C)CN([C@H](C)CO)S3(=O)=O)c1	-2	2
O=S(=O)(NCC[C@H]1CC[C@H](NS(=O)(=O)c2cccc(Cl)c2)[C@H](CO)O1)c1cccc(F)c1	-8	-4
Cn1cnc(CCNC(=O)C[C@@H]2CC[C@@H]3[C@H](COC[C@@H](O)CN3C(=O)Nc3ccc(F)cc3)O2)c1	9	8
O=C(C1=C[C@@H](c2ccc3c(c2)OCO3)C[C@@H](OCc2ccc(CO)cc2)O1)N1CCCCCCC1	-8	-15
CCCNC(=O)N1[C@@H]2c3ccc(-c4ccccc4OC)c(=O)n3C[C@H]1[C@H](CO)[C@H]2C(=O)N(C)C	6	6
CC(C)NC(=O)N(C)C[C@H]1Oc2cc(C3=CCCCC3)ccc2S(=O)(=O)N([C@H](C)CO)C[C@H]1C	-12	-11
C[C@H]1CN([C@@H](C)CO)C(=O)c2cc(NC(=O)NC3CCCCC3)ccc2O[C@@H]1CN(C)C(=O)Nc1ccc(C(F)(F)F)cc1	14	14
C[C@H](CO)N1C[C@H](C)[C@H](CN(C)Cc2cncnc2)Oc2cc(-c3cccnc3)ccc2S1(=O)=O	9	5
COCCN(C[C@H]1[C@H](c2ccccc2)[C@@H](CO)N1C(C)=O)C(=O)c1cccnc1	6	1
C[C@@H]1CN([C@H](C)CO)C(=O)CCCn2nncc2CO[C@@H]1CN(C)C(=O)Nc1cccc(C(F)(F)F)c1	7	3
COc1cc2c(cc1OC)CN(C(=O)[C@H]1[C@@H]3C(=O)O[C@@H](c4ccccc4)[C@@H](c4ccccc4)N3[C@@H](c3ccc(OCCO)cc3)[C@]13C(=O)Nc1ccc(C#CC4(O)CCCCCC4)cc13)CC2	-3	6
C[C@@H]1CCCCO[C@@H](CN(C)Cc2ccncc2)[C@H](C)CN([C@H](C)CO)C(=O)c2cc(NC(=O)Nc3ccccc3)ccc2O1	-9	-12

Eleven neighbouring compounds already listed:
SMILES	Vaccinia inh	Vaccinia inh Venus
O=C(Nc1ccc(Cl)cc1)N1[C@@H]2CNC[C@H]1C2c1ccc(/C=C/c2ccccc2)cc1 (some centres undefined)	-2&-4	11&13
C/C=C/c1ccc2c(c1)O[C@H](CN(C)C(=O)Nc1ccc(C(F)(F)F)cc1)[C@H](C)CN([C@H](C)CO)S2(=O)=O	?	·
C[C@H](NC(=O)C[C@H]1CC[C@@H]2[C@H](COc3ccc(NC(=O)C4CCOCC4)cc3C(=O)N2C)O1)c1ccccc1	18	16
CCCNC[C@H]1[C@@H](c2ccc(C3=CCCCC3)cc2)[C@@H](CO)N1C(=O)C1CCC1	7	17
COCC(=O)Nc1ccc2c(c1)C(=O)N(C)[C@H]1CC[C@H](CC(=O)NC3Cc4ccccc4C3)O[C@H]1CO2	9	9
CN(C)C(=O)C[C@@H]1CC[C@H]2[C@@H](COC[C@@H](O)CN2Cc2nccs2)O1	8	10
N#Cc1cccc(-c2ccc(C3[C@@H]4CN(C(=O)Cc5ccncc5)C[C@H]3N4)cc2)c1 (some centres undefined)	?	-16
O=C(C[C@@H]1CC[C@@H](NC(=O)c2cccc(F)c2)[C@@H](CO)O1)Nc1nccs1	6	7
COc1cccc(-c2ccc3c(c2)O[C@@H](CN(C)C(C)=O)[C@H](C)CN([C@H](C)CO)S3(=O)=O)c1	-2	2
O=S(=O)(NCC[C@H]1CC[C@H](NS(=O)(=O)c2cccc(Cl)c2)[C@H](CO)O1)c1cccc(F)c1	-8	-4
Cn1cnc(CCNC(=O)C[C@@H]2CC[C@@H]3[C@H](COC[C@@H](O)CN3C(=O)Nc3ccc(F)cc3)O2)c1	9	8

Carrying on:
SMILES	Vaccinia inh	Vaccinia inh Venus
CC(C)NC(=O)N[C@@H]1CC[C@H](CCn2cc(-c3ccccc3)nn2)O[C@H]1CO	-6	-4
C[C@@H]1CN([C@@H](C)CO)C(=O)c2cc(NC(=O)c3ccncc3)ccc2O[C@@H](C)CCCCO[C@H]1CN(C)C(=O)Nc1ccc(F)cc1	21	18
CO[C@@H](CN(C)C(=O)C1CCOCC1)[C@@H](C)CN(C(=O)Nc1ccc(C(F)(F)F)cc1)[C@@H](C)CO	19	17
COCC#Cc1ccc2c(c1)O[C@@H](CN(C)C(C)=O)[C@@H](C)CN([C@H](C)CO)S2(=O)=O	20	16
COC(=O)C[C@H]1CC[C@@H]2[C@H](COc3ccc(NC(=O)Nc4ccccc4C)cc3C(=O)N2C)O1	6	9
COc1ccc(CN(C)C[C@H]2OCCCC[C@@H](C)Oc3ccc(NC(=O)NC(C)C)cc3C(=O)N([C@@H](C)CO)C[C@@H]2C)cc1	-3	3
N#C[C@@H]1[C@@H](c2ccc(C#Cc3cccc(F)c3)cc2)[C@H](CO)N1C(=O)C1CC1	-25	-15
CO[C@@H]1CN(C)C(=O)c2ccc(NS(=O)(=O)c3ccccc3)cc2OC[C@@H](C)N(Cc2ccccn2)C[C@H]1C	14	0
OC[C@@H]1[C@@H](c2ccccc2)C2(CN(Cc3nccs3)C2)N1CCC(F)(F)F	6	-1
C[C@@H]1CN([C@@H](C)CO)C(=O)Cc2cc(NC(=O)Nc3ccc(C(F)(F)F)cc3)ccc2O[C@@H]1CN(C)C(=O)Nc1ccc(F)cc1	-23	-19
C[C@@H]1CN([C@H](C)CO)S(=O)(=O)c2ccc(-c3ccncc3)cc2O[C@H]1CN(C)C(=O)C1CC1	12	5
C[C@H]1CN([C@@H](C)CO)C(=O)CCCn2cc(nn2)CO[C@H]1CN(C)Cc1cccc(O)c1	9	17
C[C@H](CO)N1C[C@H](C)[C@H](CN(C)Cc2cccc(F)c2)Oc2cc(-c3cccc(C#N)c3)ccc2S1(=O)=O	-14	-10
CCNC(=O)C[C@@H]1CC[C@H]2[C@H](COc3ccc(NC(=O)c4cccs4)cc3C(=O)N2C)O1	6	17
COCC(=O)Nc1ccc2c(c1)C(=O)N(C)C[C@@H](OC)[C@H](C)CN(C(=O)Cc1ccccn1)[C@@H](C)CO2	8	7
O=C(N[C@H]1C=C[C@H](CC(=O)N2CCc3ccccc3C2)O[C@@H]1CO)C1CCC1	-9	0
Cc1ccc(S(=O)(=O)N(C)C[C@@H]2Oc3ccc(NS(=O)(=O)c4c(C)noc4C)cc3CC(=O)N([C@H](C)CO)C[C@H]2C)cc1	16	17
CN(C)CC(=O)Nc1ccc2c(c1)[C@H]1C[C@@H](CC(=O)NCc3ccccc3)O[C@H](CO)[C@H]1O2	-3	-3
CCNC(=O)[C@@H]1[C@@H](CO)[C@@H]2Cn3c(ccc(-c4ccc(F)cc4)c3=O)[C@H]1N2C(C)=O	3	-3
CCCC#Cc1cnc2c(c1)C(=O)N([C@@H](C)CO)C[C@H](C)[C@H](CN(C)C(=O)Nc1ccc(OC)cc1)O2	8	12
O=C(c1cnccn1)N1CC(=O)N2[C@H](CO)[C@H](c3ccc(-c4ccc(F)cc4)cc3)[C@@H]2C1	7	13
COc1ccc(NC(=O)Nc2ccc3c(c2)CC(=O)N([C@H](C)CO)C[C@@H](C)[C@@H](CN(C)S(=O)(=O)c2c(C)noc2C)O3)cc1	25	22
N#C[C@@H]1N[C@@H](CO)[C@H]1c1ccc(C#CC2CCCCC2)cc1	12	9
O=C(N[C@H]1CC[C@@H](CCn2cc(Cc3ccccc3)nn2)O[C@@H]1CO)c1cnccn1	3	1
C[C@H]1CN([C@@H](C)CO)C(=O)Cc2cc(NC(=O)CCN3CCOCC3)ccc2O[C@H]1CN(C)S(C)(=O)=O	7	6
CC=Cc1ccc2n(c1=O)C[C@H]1[C@H](CO)[C@@H](C(=O)NCCC)[C@@H]2N1C(=O)c1ccncc1 (mixture of isomers)	0	-7
O=S(=O)(N[C@@H]1CC[C@@H](CCn2cc(-c3ccccc3F)nn2)O[C@H]1CO)c1ccc(Cl)cc1	-18	-16
C[C@@H]1CN([C@H](C)CO)C(=O)c2cc(C#CC(C)(C)O)cnc2O[C@@H]1CN(C)Cc1cncnc1	6	5
COCc1cn(CC[C@H]2CC[C@@H](NC(=O)c3ccc(F)cc3)[C@@H](CO)O2)nn1	7	9
CCC(=O)N(C)C[C@H]1Oc2cc(-c3cncnc3)ccc2S(=O)(=O)N([C@H](C)CO)C[C@H]1C	18	4
O=C(C[C@H]1C[C@H]2c3cc(NC(=O)NC4CCCCC4)ccc3O[C@H]2[C@@H](CO)O1)NC1CCCC1	12	1
COc1ccc(NC(=O)Nc2cccc3c2O[C@H](CN(C)C)[C@H](C)CN([C@H](C)CO)C3=O)cc1	20	9
CCCNC(=O)[C@@H]1[C@@H](CO)[C@@H]2Cn3c(ccc(-c4cccc(F)c4)c3=O)[C@H]1N2Cc1ccccc1F	-5	-1
CCCNC(=O)N1C[C@H](O)COC[C@H]2O[C@@H](CC(=O)O)CC[C@@H]21	7	11
Cc1ccc(S(=O)(=O)Nc2cccc3c2O[C@@H](CN(C)S(=O)(=O)c2ccc(C)cc2)[C@@H](C)CN([C@H](C)CO)C3=O)cc1	-20	-14
Cc1ccc(S(=O)(=O)N(C)C[C@H]2Oc3ncc(C#CC4(O)CCCC4)cc3C(=O)N([C@@H](C)CO)C[C@H]2C)cc1	3	9
N#C[C@@H]1[C@H](c2ccc(C#CC3CCCCC3)cc2)[C@H](CO)N1C(=O)Cc1ccccn1	-22	-12
O=C(C[C@H]1C=C[C@@H](NC(=O)c2ccc3c(c2)OCO3)[C@H](CO)O1)NCc1ccc(F)cc1	9	21
C[C@@H]1CN([C@@H](C)CO)C(=O)c2cc(NC(=O)c3ccccc3)ccc2O[C@@H](C)CCCCO[C@@H]1CN(C)C(=O)Cc1ccccc1	8	-8
C[C@@H]1CN([C@@H](C)CO)C(=O)CCCn2cc(nn2)CO[C@H]1CN(C)Cc1cccc(C(=O)O)c1	10	13
Cc1noc(C)c1NC(=O)N(C)C[C@H]1Oc2c(NC(=O)Nc3ccc4c(c3)OCO4)cccc2C(=O)N([C@H](C)CO)C[C@H]1C	10	12
O=S(=O)(N[C@@H]1CC[C@@H](CCn2cc(-c3ccc(F)cc3)nn2)O[C@@H]1CO)c1ccccc1F	-3	-1
Cc1ccc(-c2ccc([C@@H]3[C@@H](CO)N4CCCCN(C)C[C@H]34)cc2)cc1	-5	-15
COc1ccc(CNC(=O)C[C@H]2CC[C@H]3[C@@H](COc4ccc(NC(=O)C5CC5)cc4C(=O)N3C)O2)cc1	14	19
CC(=O)N(C)C[C@H]1Oc2cc(C#CC3CCCCC3)ccc2S(=O)(=O)N([C@@H](C)CO)C[C@@H]1C	-27	-18
CC=Cc1ccc2n(c1=O)C[C@@H]1[C@@H](CO)[C@H](C(=O)NCCC)N(CC3CCOCC3)[C@H]21 (mixture of isomers)	13	7
CS(=O)(=O)Nc1ccc2c(c1)[C@@H]1C[C@H](CC(=O)NC3CCCCC3)O[C@H](CO)[C@@H]1O2	14	9
COCC(=O)N1CC2(C1)[C@@H](c1ccccc1)[C@@H](CO)N2CCC(F)(F)F	14	22
CC(C)CC#Cc1ccc([C@@H]2[C@H](CO)N3C(=O)CN(S(=O)(=O)c4ccccc4)C[C@@H]23)cc1	23	11
COc1ccc(NC(=O)N[C@@H]2CC[C@@H](CC(=O)NCc3ccccn3)O[C@@H]2CO)cc1	2	2
OC[C@H]1[C@@H](c2ccc(C#Cc3ccccc3)cc2)[C@H]2CN(CC3CCOCC3)CCCCN21	?	·
C[C@H]1CN([C@@H](C)CO)C(=O)Cc2cc(NC(=O)Nc3ccccc3)ccc2O[C@@H]1CN(C)Cc1ccncc1	-5	-2
Cc1ccc(S(=O)(=O)N(C)C[C@@H]2OCCCC[C@H](C)Oc3ccc(NC(=O)Nc4ccc(C(F)(F)F)cc4)cc3C(=O)N([C@H](C)CO)C[C@H]2C)cc1	-15	-3
COc1cccc(NC(=O)C[C@H]2CC[C@@H]3[C@H](COc4ccc(NC(=O)C5CCCCC5)cc4C(=O)N3C)O2)c1	?	·
C[C@H](CO)N1C[C@H](C)[C@H](CN(C)Cc2ccc(C(=O)Nc3ccccc3N)cc2)Oc2ccc(NS(=O)(=O)c3cccs3)cc2C1=O	-3	-6
O=C(c1ccc2c(c1)OCO2)N1C[C@@H]2[C@H](c3ccccc31)[C@H](CO)N2Cc1ccccc1Cl	-12	-7
C[C@@H]1CN([C@H](C)CO)C(=O)c2cc(NC(=O)Nc3ccc(F)cc3)ccc2O[C@@H](C)CCCCO[C@@H]1CN(C)C(=O)Cc1ccccc1	17	11
COc1ccccc1CNC(=O)C[C@@H]1C[C@@H]2c3cc(NS(=O)(=O)c4ccc(F)cc4)ccc3O[C@@H]2[C@H](CO)O1	-7	-14
CN(C)C(=O)c1ccc(-c2cccc(-c3nc(C(=O)NC4CCCCC4)cc4c3[C@H](CCO)N([S@@](=O)C(C)(C)C)C4)c2)cc1	?	·
COc1ccc2c3c(n(C)c2c1)[C@@H](CO)N(CC1CCOCC1)CC31CCN(Cc2nccs2)CC1	8	-2

The list is partial, so the mix of outcomes need not match the whole.
